# RecA splice inh: blocks M. tuberculosis RecA intein splicing; cell-free RecA intein splicing, fluorescence; inhibition, %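 (about 9 µM by stock and volumes)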; 0.75% of 290,000 active; AID 2221; in the data active = inhibition above about 30%;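 also: 0% = vehicle wells and 100% = reference inhibitor control wells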
# Target sequence (P9WHJ3 whole entry, looked up, canonical isoform): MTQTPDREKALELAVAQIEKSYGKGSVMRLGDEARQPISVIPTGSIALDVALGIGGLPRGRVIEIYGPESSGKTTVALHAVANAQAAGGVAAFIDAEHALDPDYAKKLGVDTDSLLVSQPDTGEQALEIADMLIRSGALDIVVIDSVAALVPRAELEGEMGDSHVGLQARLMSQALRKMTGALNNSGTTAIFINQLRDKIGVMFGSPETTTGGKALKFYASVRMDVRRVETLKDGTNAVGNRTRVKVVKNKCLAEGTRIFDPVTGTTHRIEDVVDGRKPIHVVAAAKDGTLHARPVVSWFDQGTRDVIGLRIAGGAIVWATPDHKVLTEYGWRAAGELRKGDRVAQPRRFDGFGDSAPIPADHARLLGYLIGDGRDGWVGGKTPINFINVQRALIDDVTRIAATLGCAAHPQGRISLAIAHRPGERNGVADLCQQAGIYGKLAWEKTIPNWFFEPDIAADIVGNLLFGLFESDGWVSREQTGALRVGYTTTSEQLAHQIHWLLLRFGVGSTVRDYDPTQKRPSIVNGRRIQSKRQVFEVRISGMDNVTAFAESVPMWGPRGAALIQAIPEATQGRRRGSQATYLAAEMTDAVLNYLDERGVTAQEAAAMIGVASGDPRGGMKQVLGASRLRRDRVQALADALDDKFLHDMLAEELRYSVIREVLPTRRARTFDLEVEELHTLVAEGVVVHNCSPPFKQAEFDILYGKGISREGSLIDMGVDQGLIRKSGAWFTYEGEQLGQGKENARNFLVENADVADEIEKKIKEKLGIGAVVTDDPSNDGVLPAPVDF
# Arbovirus anti: arbovirus infection inhibition; 0.37% of 200,000 active; inhibition, % at 10 µM; arbovirus infection cell-based antiviral screen;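 active = inhibition from about 30%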;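 also: bluetongue infection of BSR cells; cell survival read as ATP light after 72 h; 0% = infected wells without compound and 100% = uninfected wells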
# Mtb H37Rv: M. tuberculosis H37Rv growth inhibitors, H37Rv strain (AID 1626) | M. tuberculosis H37Rv growth inhibition; higher % means a stronger effect | one-dose inhibition, % at 10 µM; IC50 in µM for titrated hits | 0.95% of 220,000 active;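 active = confirmed in a dose series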;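 also: bacteria incubated seven days before Alamar blue readout; 0% = bacteria only wells and 100% = bacteria with antibiotic wells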
# YopH inh: blocks Yersinia enterocolitica YopH tyrosine phosphatase. inhibition, %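 (about 10 µM by stock and volumes)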. 0.16% of 140,000 active. AID 898. fluorescence Ex485/Em525;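 active = inhibition of 50% or more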;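 also: controls were vehicle for no effect and minimum signal wells for full effect; inactives centre near -20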
# Mtb betalactam: beta-lactam sensitization of Mtb H37Rv. M. tuberculosis H37Rv growth with meropenem, percent inhibition; hits of this screen are not shown here. inhibition, % at 25 µM. 0.27% of 330,000 active. AID 434955;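 active = about 74% or more and at least 40 points above the plate without the antibiotic, then above 30% in a dose series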;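 also: growth measured after seven days incubation then overnight dye step; 0% = bacteria only wells and 100% = bacteria with antibiotic; twin plates without the antibiotic show which effects depend on it; some results filed as inactive read as strong as hits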
# Arbovirus anti repeat: recorded beside Arbovirus anti, whose call it bears; inhibition, %; measured here: 10K subset replicate screen; many hits read low in the repeat;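 first of two repeat runs on a subset; 0% = infected and 100% = uninfected wells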
# Active calls of the source: *; x = no result given.
SMILES,RecA splice inh,Arbovirus anti,Mtb H37Rv,YopH inh,Mtb betalactam,others
CC(C)CC1NC(=O)N(CC(=O)N2CCN(S(=O)(=O)c3ccc(Cl)cc3)CC2)C1=O (centres undefined),-2.7,10,2%,-45,4,
Cc1ccc(C(=O)N2CCCC(N(C)Cc3ccccc3)C2)s1 (centres undefined),-1.9,x,x,x,4,
COc1ccc(C(=O)OCC(=O)NC(C)CCc2ccccc2)cc1 (centres undefined),-13,x,x,x,9,
CCOC(=O)n1c(=O)oc2ccc(Cl)cc21,-1.3,-4,-18%,-33,2,
CC[C@@H](C)C(NC(=O)OC(C)(C)C)c1cn([C@@H](CCC(=O)OC(C)(C)C)C(=O)N2CCN(C(=O)OC(C)(C)C)CC2)nn1 (some centres undefined),-0.1,-7,-1%,x,2,
Nc1ccccc1SC1CC(=O)N(c2ccc(Cl)c(Cl)c2)C1=O (centres undefined),-0.5,x,1%,x,4,
Nc1nnnn1/N=C/c1ccccc1OCc1ccc(Cl)cc1,1.4,5,3%,-32,-2,
CC(=O)Nc1ccc(NC(=O)CSCc2cnn(-c3ccccc3)c2-n2cccc2)cc1,6.2,-12,-2%,-19,-9,
Cc1cc(Nc2ccc(F)cc2)nc(N)n1,0.2,4,-1%,-26,3,
Cc1nc2c(cnn2-c2ccccc2Cl)c(=O)n1-c1ccc(N2CCC(C)CC2)cc1,2.1,6,4%,-15,-9,
CC(=O)NCC1CCCN(C(=O)c2oc3c(F)cccc3c2C)C1 (centres undefined),4.8,x,x,x,-12,
CCN(CC)P(=O)(NC(=O)c1cccn1C)N(CC)CC,3.2,5,-1%,x,-3,
Nc1nonc1-n1nnc(C(=O)N/N=C/c2cccc(Cl)c2)c1CSc1ccccc1,x,x,-2%,x,-4,
CC(C)(C)NC(=O)Cn1cc(C(=O)c2ccccc2F)c2ccccc21,-1.3,-1,-3%,-4,-4,
C/C=C/c1c(F)c(F)c(Oc2ccc(C(=O)O)cc2)c(F)c1F,2.2,10,-2%,-14,2,
CN1CCN(c2ccc(NC(=O)COc3ccccc3Cl)cc2)CC1,5.0,-22,7%,-27,-3,
Cc1oc(-c2ccccc2F)nc1CSCC(=O)NCc1ccc2c(c1)OCO2,-0.1,-1,0%,-58,-11,
O=C(N1CCOCC1)N1CCN(S(=O)(=O)N2CCCCC2)CC1,1.6,6,3%,39,-4,
Cc1ccc(S(=O)(=O)N2CCCC2C(=O)N2CCCCCC2)cc1 (centres undefined),1.6,5,-8%,-8,-26,
CC(C)N(C(=O)Cn1cc(S(=O)(=O)CC(=O)N2CCOCC2)c2ccccc21)C(C)C,-1.6,x,x,x,-1,
O=C1NC2=C(CCc3ccccc32)C(c2ccccc2)N1 (centres undefined),47*,4,8%,-8,0,
CSC(=NCCCN1CCOCC1)NS(=O)(=O)c1cccs1,-2.3,7,-2%,-37,-7,Arbovirus anti repeat=5
CCCCn1c(N)c(NCC)c(=O)[nH]c1=O,x,5,4%,x,x,
OC(CNCCc1ccc(Cl)cc1)COc1cc(Cl)ccc1Cl (centres undefined),4.6,x,x,x,54,
COc1ccc(COC(=O)c2c(C)nn(-c3ccccc3)c2Cl)cc1,7.3,x,x,x,-8,
CCCn1c(SCC(=O)NC2CCCC2)nc2c1c(=O)n(C)c(=O)n2C,-2.5,x,x,x,-8,
COc1ccc(N2CCN(C(=O)c3cc(=O)c4cc(C)cc(C)c4o3)CC2)cc1,-0.6,x,x,x,53,
NC(=O)C1=C[C@@H](C2CCCCC2)C[C@@H](OCc2ccc(CO)cc2)O1,2.8,x,-4%,x,-2,
COc1ccc(CCNC(=O)CN(c2ccccc2)S(C)(=O)=O)cc1OC,x,-1,-10%,-2,0,
COc1cccc(Nc2nc3ccccc3nc2NS(=O)(=O)c2ccc(NC(C)=O)cc2)c1,-3.9,x,x,x,0,
COc1cc(Cl)c(C)cc1NC(=O)COC(=O)C(NS(=O)(=O)c1ccc(Cl)cc1)C(C)O (centres undefined),0.1,5,12%,-13,-7,
O=C(Nc1cc(Cl)ccc1N1CCCC1)C1=NN(c2ccccc2)C(=O)CC1,-1.9,x,x,x,1,
CN(C)c1nc(SCC#N)nc(N2CCOCC2)n1,-0.7,-2,-4%,-2,-10,
CN(CC(=O)Nc1ccccc1Oc1ccccc1)Cc1ccccc1F,17,-6,-5%,-3,9,
CN(C)[C@@H]1C(=O)C(C(N)=O)=C(O)[C@@]2(O)C(=O)C3=C(O)c4c(O)cccc4[C@@](C)(O)C3C[C@@H]12 (some centres undefined),-34,x,x,x,99,
O/N=C(/c1ccc(Cl)cc1)C1CC1c1ccccc1 (centres undefined),17,x,x,x,-2,
O=C(O)CCn1c(=O)c2ccccc2c2ccccc2c1=O,0.4,1,-3%,13,0,
Fc1ccc2nc3n(c2c1F)CCCCCC3,4.4,2,0%,-50,10,
CCCn1c(=O)c2[nH]cnc2n(-c2ccccc2C)c1=O,-6.7,x,-6%,x,-10,
Cc1cccc(NC(=O)C2CCCN(C(=O)NCc3ccccc3)C2)c1C (centres undefined),-0.7,x,x,x,1,
CC(C)NC(=O)C(=O)NC1CCCCCC1,1.7,2,-2%,14,2,
Cc1ccc(-c2nn(-c3ccccc3)cc2C(=O)O)o1,-2.6,-2,3%,x,3,
CCOC(=O)C(C(=O)N(C)Cc1ccccc1)C1CCCCC1 (centres undefined),3.8,x,x,x,-2,
CCOP1(=O)C=C(C(C)(C)C)OC1c1ccc(F)cc1 (centres undefined),1.1,0,9%,-23,-2,
Cc1ccc(NC(NC(=O)c2ccccn2)C(Cl)(Cl)Cl)cc1 (centres undefined),2.3,-3,-3%,-13,35,
NC(=O)C1(N2CCCCC2)CCN(Cc2ccccc2Cl)CC1,-0.4,-5,-3%,-16,3,
Cc1cc(C)c(NC(=O)CS(=O)CC(=O)NCCCc2ccccc2)c(C)c1 (centres undefined),-0.2,-1,-3%,-18,-2,
O=C(NNC1=NCCC1)c1cccc(S(=O)(=O)N2CCCC2)c1,-1.0,4,-2%,-51,1,
O=C1C=C(NCc2ccc(Cl)cc2Cl)C2(CCCCC2)O1,7.8,0,-4%,-6,-1,
Cn1c(SCC(=O)N2CCc3ccccc3C2)nnc1-c1ccncc1,2.2,3,2%,-22,-4,
# Further compounds:
SMILES,RecA splice inh,Arbovirus anti,Mtb H37Rv,YopH inh,Mtb betalactam,others
Brc1cc2c(cc1C1Nc3ccccc3C3C=CCC31)OCO2 (centres undefined),-2.8,-4,2%,-18,3,
CN(C)CCNC(=O)Cn1nc(-c2ccc(Cl)cc2)ccc1=O,5.2,-7,x,-47,2,
Cc1cccc2cc(CN(CCCN3CCOCC3)Cc3nnnn3C(C)(C)C)c(=O)[nH]c12,-1.1,11,-6%,-2,9,
O=S(=O)(N/N=C\c1ccc2c(c1)OCO2)c1ccc(F)cc1,0.3,x,x,x,-1,
O=C(N1CCC(O)(c2cccnc2)CC1)C12CC3CC(CC(C3)C1)C2,0.7,1,-6%,-17,-10,
C#CCn1c(=NC(=O)c2ccccc2[N+](=O)[O-])sc2cc(S(C)(=O)=O)ccc21,-5.0,-5,1%,-32,-6,
COc1cc(/C=C2\SC(=Nc3ccc(Cl)c(C(=O)O)c3)NC2=O)c(Br)c(Br)c1O,-8.1,x,x,x,-1,
CCc1c(C)sc(NC(=O)c2ccccc2[N+](=O)[O-])c1C(N)=O,-4.9,-9,7%,-13,0,
COc1cccc(C(=O)Nc2ccc(NC(=O)C3C4C=CC(C4)C3C(=O)O)cc2)c1 (centres undefined),0.4,x,x,x,-10,
Cn1nnc(C(O)CN2CCOCC2)n1 (centres undefined),1.5,-5,-23%,-19,-6,
COc1ccc([N+](=O)[O-])cc1N(CC(O)CN1CCCCC1)S(=O)(=O)c1ccccc1 (centres undefined),-0.5,-1,-4%,x,-8,
O=C(C1=C(O)C(=O)N(CCN2CCOCC2)C1c1cccc(F)c1)c1cc2ccccc2o1 (centres undefined),2.1,x,x,x,-9,
Brc1ccccc1-c1csnn1,-3.3,-2,-6%,-32,-4,
Cc1ccc(C)c(C(=O)CCC(=O)Nc2cccnc2)c1,-1.3,6,0%,10,-8,
COc1cc(OC)c(C(=O)NC2CCCCCC2)cc1OC,-4.3,4,-4%,-3,56,
CC(C)Nc1ncnc2c1nnn2Cc1ccccc1,x,-6,-11%,-4,-6,
O=C(OCC(=O)N1CCN(c2ccccc2)CC1)c1ccc(O)cc1O,-0.9,x,x,x,-20,
O=C(NC(=S)NNC(=O)c1ccccc1O)c1ccccc1,24,x,x,x,16,
Cn1c(-c2c(N)n(-c3ccccc3)c3nc4ccccc4nc23)nc2ccccc21,-35,64*,0.33µM*,-18,96,
OCCNc1nc(C2CC2)nc2c1nnn2Cc1ccccc1Cl,0.1,2,-2%,-11,2,
Cc1cc(C(F)F)n2nc(C(=O)Nc3ccc(F)cc3F)nc2n1,-3.8,-1,2%,-31,-9,
N=C1C(c2ccccc2)=C(O)CN1c1cccc(S(=O)(=O)N2CCOCC2)c1,-1.5,x,-11%,x,-9,
N#Cc1cccc(-n2nnnc2-c2ccccn2)c1,0.0,-3,-1%,-46,3,
CCOC(=O)CNC(=O)Cn1cnc2c(nnn2-c2ccc(C)cc2)c1=O,0.7,2,-9%,-48,-8,
Cc1csc2nc(O)c(C(=O)NCCCN3CCCC3=O)c(=O)n12,-1.7,x,x,x,-3,
Cn1c(=O)n(C)c2cc(N3CCOCC3)c(NC(=O)c3ccc(F)cc3)cc21,-0.5,x,x,x,4,
Cc1c(NC(=O)CSc2ncnc3ccccc23)c(=O)n(-c2ccccc2)n1C,1.6,8,-1%,x,6,
COc1ccc(C(=O)C2CCCN(Cc3cccc4c3OCO4)C2)cc1OC (centres undefined),-0.9,7,3%,x,5,
COc1ccc(S(=O)(=O)N2CCC(C(=O)NCCc3ccc4c(c3)OCO4)CC2)cc1,5.0,-3,-3%,-40,-5,
CC(C)CNc1nc(SCC(=O)Nc2ccccc2)nc(N2CCOCC2)n1,-0.6,-2,3%,x,2,
CCCC(=O)N(Cc1cc(=O)[nH]c2ccccc12)c1ccc(OC)cc1,4.5,x,x,x,-11,
Nc1nnc(Cc2ccccc2F)s1,2.7,2,3%,x,4,
Cc1ccccc1COC(=O)c1nn(-c2ccccc2)nc1N,0.4,1,2%,x,81,
CCOC(=O)c1sc2nc(C)cc(C)c2c1N,-11,-4,0%,-26,7,

# A stretch from the list above:
SMILES,RecA splice inh,Arbovirus anti,Mtb H37Rv,YopH inh,Mtb betalactam,others
CC(C)Nc1ncnc2c1nnn2Cc1ccccc1,x,-6,-11%,-4,-6,
O=C(OCC(=O)N1CCN(c2ccccc2)CC1)c1ccc(O)cc1O,-0.9,x,x,x,-20,
O=C(NC(=S)NNC(=O)c1ccccc1O)c1ccccc1,24,x,x,x,16,
Cn1c(-c2c(N)n(-c3ccccc3)c3nc4ccccc4nc23)nc2ccccc21,-35,64*,0.33µM*,-18,96,
OCCNc1nc(C2CC2)nc2c1nnn2Cc1ccccc1Cl,0.1,2,-2%,-11,2,
Cc1cc(C(F)F)n2nc(C(=O)Nc3ccc(F)cc3F)nc2n1,-3.8,-1,2%,-31,-9,
N=C1C(c2ccccc2)=C(O)CN1c1cccc(S(=O)(=O)N2CCOCC2)c1,-1.5,x,-11%,x,-9,
N#Cc1cccc(-n2nnnc2-c2ccccn2)c1,0.0,-3,-1%,-46,3,
CCOC(=O)CNC(=O)Cn1cnc2c(nnn2-c2ccc(C)cc2)c1=O,0.7,2,-9%,-48,-8,
Cc1csc2nc(O)c(C(=O)NCCCN3CCCC3=O)c(=O)n12,-1.7,x,x,x,-3,
Cn1c(=O)n(C)c2cc(N3CCOCC3)c(NC(=O)c3ccc(F)cc3)cc21,-0.5,x,x,x,4,
Cc1c(NC(=O)CSc2ncnc3ccccc23)c(=O)n(-c2ccccc2)n1C,1.6,8,-1%,x,6,
COc1ccc(C(=O)C2CCCN(Cc3cccc4c3OCO4)C2)cc1OC (centres undefined),-0.9,7,3%,x,5,
COc1ccc(S(=O)(=O)N2CCC(C(=O)NCCc3ccc4c(c3)OCO4)CC2)cc1,5.0,-3,-3%,-40,-5,
CC(C)CNc1nc(SCC(=O)Nc2ccccc2)nc(N2CCOCC2)n1,-0.6,-2,3%,x,2,
CCCC(=O)N(Cc1cc(=O)[nH]c2ccccc12)c1ccc(OC)cc1,4.5,x,x,x,-11,
Nc1nnc(Cc2ccccc2F)s1,2.7,2,3%,x,4,
Cc1ccccc1COC(=O)c1nn(-c2ccccc2)nc1N,0.4,1,2%,x,81,
CCOC(=O)c1sc2nc(C)cc(C)c2c1N,-11,-4,0%,-26,7,

# Screening results from PubChem.

# Only part of the results is shown; rates above refer to the full screens.
